Source: PubChem BioAssay
D2 agonist – activates the human D2 dopamine receptor; hit rate 0.084% among 360,000; DiscoveRx PathHunter D2 beta-arrestin, luminescence, 90 min; 100% = 57 uM dopamine signal; activation, % (concentration not given with the values); P14416; in the data active = activation above about 40%; inconclusive = about 15% to 40%; inactive = below about 15%; also: compound concentration not given in the record; the text of the record calls up to 30% inactive
Target sequence (P14416 whole entry, looked up): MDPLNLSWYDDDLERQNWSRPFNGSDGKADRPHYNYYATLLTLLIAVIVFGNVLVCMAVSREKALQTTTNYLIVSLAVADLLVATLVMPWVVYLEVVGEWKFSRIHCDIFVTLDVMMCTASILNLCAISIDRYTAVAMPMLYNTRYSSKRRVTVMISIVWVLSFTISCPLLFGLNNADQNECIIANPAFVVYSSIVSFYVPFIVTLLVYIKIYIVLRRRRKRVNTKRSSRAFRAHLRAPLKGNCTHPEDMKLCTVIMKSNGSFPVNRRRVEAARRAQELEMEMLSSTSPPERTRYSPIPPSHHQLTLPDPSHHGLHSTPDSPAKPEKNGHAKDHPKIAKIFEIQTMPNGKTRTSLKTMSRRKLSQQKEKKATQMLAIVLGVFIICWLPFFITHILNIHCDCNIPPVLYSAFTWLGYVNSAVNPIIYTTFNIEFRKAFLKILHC
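Agonist mode: compounds alone added to overnight-plated D2 PathHunter cells for 90 min at 37 C, with 57 uM final dopamine (EC100) defining full response. Beta-arrestin recruitment detected by chemiluminescent reagent, read after 1 h at ambient temperature.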
TRPML1 inh – blocks the human TRPML1 channel; AID 624415; Q9GZU1; hit rate 0.02% among 390,000; activity change, negative = inhibition, % (test concentration not listed); TRPML1-inducible cells, Ca2+ dye fluorescence, FDSS; active compounds read low; inhibition of EC80 agonist-evoked calcium signal; in the data active means activity change below about -50%; inconclusive means about -30% to -50%; inactive means above about -30%;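 also: stimulus is agonist 54-4 at its EC80 concentration; % is scaled to controls: 0 for no effect and ±100 for the full control effect; compound concentration not given in the record; the text of the record puts the active cut at -80%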
Target sequence (Q9GZU1 whole entry, looked up): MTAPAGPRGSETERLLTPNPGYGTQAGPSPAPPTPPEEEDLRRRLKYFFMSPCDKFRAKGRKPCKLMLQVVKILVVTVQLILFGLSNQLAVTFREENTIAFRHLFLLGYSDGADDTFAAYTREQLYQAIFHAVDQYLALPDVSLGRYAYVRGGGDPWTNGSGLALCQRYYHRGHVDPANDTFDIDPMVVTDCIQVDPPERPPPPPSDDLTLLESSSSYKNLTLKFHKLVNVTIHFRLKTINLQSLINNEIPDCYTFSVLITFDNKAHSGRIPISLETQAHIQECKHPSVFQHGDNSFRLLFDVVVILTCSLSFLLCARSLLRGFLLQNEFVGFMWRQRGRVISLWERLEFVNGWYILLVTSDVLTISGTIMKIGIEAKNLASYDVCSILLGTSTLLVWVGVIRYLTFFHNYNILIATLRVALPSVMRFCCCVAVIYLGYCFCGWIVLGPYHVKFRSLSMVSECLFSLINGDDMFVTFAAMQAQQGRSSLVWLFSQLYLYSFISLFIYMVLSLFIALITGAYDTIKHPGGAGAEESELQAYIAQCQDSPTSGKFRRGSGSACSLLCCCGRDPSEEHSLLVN
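Tet-induced TRPML1-DL cells loaded with Ca8 no-wash calcium dye were read kinetically on FDSS. Compound addition was followed by EC80 agonist 54-4 (4 uM final); inhibition was read over 110 s.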
TRPML1 ag – activates the human TRPML1 channel; Q9GZU1; TRPML1-expressing cells, Ca2+ dye fluorescence, FDSS; host cell line not named in the record; reference of the full effect not given here; activation, % (no concentration beside the values); hit rate 0.12% among 410,000; in the data active = activation above about 50%; inconclusive = about 30% to 50%; inactive = below about 30%; also: 0% is about no effect; the text of the record puts the active cut at 80%
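TRPML1-DL cells, Tet-induced overnight (~16 h, 37 degrees C), loaded 45-90 min at room temperature with Ca8 no-wash calcium dye plus quencher. FDSS fluorescence: 10 s baseline, compound pin-transfer, 110 s agonist read, then EC80 54-4 (4uM final) and 110 s antagonist read.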
PINK1 modulator – changes PINK1 expression. Potency, µM (highest dose often 76.6 µM), without a hit: at the top dose activation (PINK1 increase), hits mostly activators. hit rate 0.2% among 410,000. AID 624263. PINK1 immunofluorescence, high-content cytometry, 24 h; active = well fitted activation curve with a large enough effect; inconclusive = small, poorly fitted or top-dose-only effect; inactive = flat fitted curve, though single readings scatter; cell line not stated here;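 also: potency is read from the fitted curve at half-maximal effect; % of control where 0% means no effect; nearly all actives have a fitted effect of over 65% in size; a mitochondrial uncoupler was the plate control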
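Compound titrations (5 concentrations, 24 h) on a stable cell line; DMSO and CCCP controls. Endpoint: fixed-cell PINK1 immunofluorescence with mitochondrial, cell and nuclear markers, scanned by microplate cytometer.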
Six1-Eya2 blk – Six1/Eya2 interaction inhibition; AlphaScreen GST-Six1/His-Eya2 binding, biochemical; active compounds read low; control for the full effect not named in the record; activity change, % (no concentration beside the values); hit rate 0.56% among 360,000; AID 651725; in the data active = activity change below about -65%; inconclusive = about -30% to -65%; inactive = above about -30%; also: % is scaled to controls: 0 for no effect and ±100 for the full control effect
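GST-Six1 + His-Eya2 (5X stock: 250/500 nM); Tris pH 8.0, 300 mM NaCl, 0.05% BSA, 0.02% Tween 20; GSH donor/Ni acceptor beads; 1 h 37 °C dark; AlphaScreen readout.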
D2 PAM – positive allosteric modulators of human D2 dopamine receptor | P14416 | DiscoveRx D2 beta-arrestin cells, luminescence, 90 min; 100% = 57 uM dopamine signal | potentiation, % (no concentration beside the values) | hit rate 0.23% among 360,000; active = potentiation of 50% or more; inconclusive = 30% to 50%; inactive = 30% or less;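 also: compound concentration not given in the record; tested on top of an EC20 dose of dopamine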
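PathHunter beta-arrestin assay in DiscoveRx D2 cells. Compounds were added with an EC20 of dopamine (50 nM final) for 90 min at 37 deg C. Luminescence was read 1 h after detection reagent, with 57 uM dopamine as the EC100 control.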
An asterisk follows results filed as active; ? = inconclusive; . = not tested or not shown; & = joins results of further samples; [ ] = dose if it differs, or a comment.

SMILES	D2 agonist	TRPML1 inh	TRPML1 ag	PINK1 modulator	Six1-Eya2 blk	D2 PAM
COc1ccc(CC(=O)Nc2cc(S(=O)(=O)N3CCCCC3)ccc2C)cc1OC	-1.1	7	0.2	1.6%	4	-40
COc1cc(/C=C(\C#N)C(=O)Nc2ccc(SC(F)F)cc2)cc(OC)c1OC	-1.0	3	0.5	9.7%	-1	-11
COC(=O)c1sc2ccccc2c1-n1cccc1C(=O)C(=O)Nc1ccc(OC)cc1	0.0	10	0.8	6.0%	-27	-8
Cc1ccc(C(=O)NC2CCSC2=O)cc1 (stereo unspecified)	-1.5	4	-0.6	?	2	-15
COc1ccc(N2CC(C(=O)N3CCN(C(=O)c4ccco4)CC3)CC2=O)cc1 (stereo unspecified)	-2.4	22	0.2	4.3%	-1	-4
CCCNC(=O)C(Cc1cccc(Cl)c1)NC(=O)c1ccccc1 (stereo unspecified)	-6.1	-25	-0.2	3.0%	14	-3
COc1ccc(C(CNS(=O)(=O)c2ccc(F)cc2)N2CCN(C)CC2)cc1 (stereo unspecified)	-8.2	-5	-0.8	-1.0%	3	-10
CC(=O)Nc1cc(OC(=O)c2ccco2)cc(OC(=O)c2ccco2)c1	-1.8	8	0.4	-1.4%	-5	-9
Cc1cccc(OCC(=O)NCc2cc(C)nc3ccccc23)c1	-3.1	24	0.2	2.5%	-5	4
c1ccc(-c2csc(N3CCN(c4ccccn4)CC3)n2)cc1	-2.3	4	0.0	3.0%[38.3 µM]	-13	-10
O=c1c2ccccc2nc(-c2ccco2)n1-c1nc2ccccc2s1	-2.3	20	2.4	2.0%	2	-18
O=C(Cc1ccccc1)Nc1ccc(NC(=O)Cc2ccccc2)c(Cl)c1	-4.7	0	0.2	-1.0%	7	-2
COc1ccc(CNS(=O)(=O)c2cnc(N)nc2)c(OC)c1	.	-12	-0.7	-0.9%	.	.
COc1ccc(CNCC(=O)Nc2cc(OC)cc(OC)c2)cc1	-4.9	-6	0.8	2.6%	8	-23
CC(C)(O)CC[C@@H](O)[C@](C)(O)[C@H]1CC[C@@]2(O)C3=CC(=O)[C@@H]4C[C@@H](O)[C@@H](O)C[C@]4(C)C3CC[C@]12C (stereo partly specified)	-4.3	.	.	0.4%	2	-9
COc1ccc(CSc2n[nH]c(C)n2)cc1Br	2.6	-2	1.7	-3.1%[38.3 µM]	-14	1
COc1ccc(C(NC(=O)C(C)C)c2c(O)ccc3ccccc23)cc1OC (stereo unspecified)	8.7	9	0.4	3.2%	-10	-2
CCOC(=O)c1c(N=CN(C)C)c2cc([N+](=O)[O-])cnc2n1C	4.9	-10	0.4	-1.7%	-6	-2
CC(C)[C@H](NC(=O)c1nn(Cc2ccccc2)c(=O)c2ccccc12)C(=O)O	2.1	44	3.0	1.7%	10	19
O=C(CSc1ccc(-c2cccc([N+](=O)[O-])c2)nn1)N1CCCC1	-0.2	-13	1.1	1.4%	5	6

2 records picked at random from those above, as already listed:
SMILES	D2 agonist	TRPML1 inh	TRPML1 ag	PINK1 modulator	Six1-Eya2 blk	D2 PAM
COc1cc(/C=C(\C#N)C(=O)Nc2ccc(SC(F)F)cc2)cc(OC)c1OC	-1.0	3	0.5	9.7%	-1	-11
COc1ccc(C(CNS(=O)(=O)c2ccc(F)cc2)N2CCN(C)CC2)cc1 (stereo unspecified)	-8.2	-5	-0.8	-1.0%	3	-10

Following part:
SMILES	D2 agonist	TRPML1 inh	TRPML1 ag	PINK1 modulator	Six1-Eya2 blk	D2 PAM
Cc1ccc(C)c(NC(=O)CN2C(=O)CCc3ccccc32)c1	.	-26	0.0	1.1%	.	.
c1ccc2c(c1)[nH]c1c(N3CCN(C4CCCCC4)CC3)ncnc12	1.3	41	0.3	4.8%	-21	-13
CC1=CC(C)(C)N=C(Nc2nc(C)c3cc(C)cc(C)c3n2)N1	-1.2	1	0.0	?	-25	-22
COC(=O)c1ccccc1NC(=O)CN(c1ccccc1)S(=O)(=O)N(C)C	-3.6	7	0.2	6.5%[38.3 µM]	0	-17
O=C(CC(=O)N/N=C/c1ccc(O)cc1)N/N=C/c1ccc(O)cc1	-2.4	.	.	0.7%	-9	-6
CN(Cc1ccc(F)cc1)C(=O)c1cc(COc2ccc(F)cc2F)on1	2.5	21	0.6	-0.3%	3	-7
COc1ccc(CCC(=O)NCC(=O)OCc2ccccc2)cc1	-3.5	.	.	-0.1%	1	-6
CCCCCOc1ccc(Cl)cc1CN1CCOCC1	-5.5	9	-1.8	19%	12	1
COc1ccccc1N1CCN(C(=O)c2cc3c(-c4ccc(Cl)cc4)nn(C)c3s2)CC1	-3.2	-7	0.7	-0.3%	-3	-3
CC1(c2nnc(-c3ccncc3)o2)CC(c2cccnc2)=NO1 (stereo unspecified)	-2.0	-6	-0.3	0.2%	3	-8
CC(=O)N1N=C(c2ccncc2)OC12CCCC2	-2.2	-19	-0.3	-1.2%	1	7
COc1ccccc1OCC(=O)Nc1cccc(N(C)S(C)(=O)=O)c1	-2.5	-7	3.4	3.6%[38.3 µM]	0	-1
CC(Nc1nc(N2CCCC2)nc2ccccc12)c1ccccc1 (stereo unspecified)	-9.9	-15	-0.4	1.5%	0	-44
CC12CN3CC(c4ccccc4)(CN(C1)C3c1ccc(Cl)cc1)C2=O (stereo unspecified)	.	-1	0.9	0.5%	.	.
COc1cc(C(=O)NCCNC(=O)C2CCCNC2=O)cc(OC)c1OC (stereo unspecified)	-7.6	14	0.4	-0.7%	-2	-4
CCN(CC)CCCN(CC(=O)N(C)Cc1ccccc1)C(=O)c1ccc([N+](=O)[O-])cc1	-0.1	.	.	0.8%	-3	-9
C=CCc1cccc2cc(-c3nc4ccc(C(=O)O)cc4[nH]3)c(=O)oc12	.	7	0.2	2.0%	.	.
Cc1ccc(/C=N/NC(=O)c2ccc(N(C)S(=O)(=O)c3ccccc3)cc2)cc1	0.8	-15	2.6	-3.0%	-23	-7
CC1CC(C)CN(S(=O)(=O)c2cccc(C(=O)OCCN3CCCC3=O)c2)C1 (stereo unspecified)	-1.6	-8	-0.4	-0.7%	2	1
CCC12CN(C(=O)c3ccc(C)cc3)CC(CC)(CN(C(=O)c3ccc(C)cc3)C1)C2=O	-1.0	-19	0.6	1.2%	7	-7
Cc1ccc(/C=c2\sc3n(c2=O)CN(c2ccc(Br)cc2)CN=3)o1	-1.4	-8	-1.0	-1.2%	-16	-1
CC(=O)c1cccc(NC(=O)CN(c2ccc(F)cc2)S(C)(=O)=O)c1	-1.8	11	-0.2	1.5%	0	7
CC1(C)COC(c2ccc(F)c([N+](=O)[O-])c2)=N1	-5.0	-19	0.5	0.2%	5	-15
COc1ccc(NC(=O)c2cccc3c2C(=O)N(C2CCCCC2)C3)cc1	1.9	-14	-0.6	0.2%	-1	0
Cc1cc(C)cc(OCC(=O)N/N=C/c2ccco2)c1	-0.4	3	0.0	0.5%	-3	-7
CCN(CC(=O)NCCc1ccccc1)S(=O)(=O)c1ccc(C)cc1	-0.7	23	1.3	0.2%	-1	-6
O=C(NCc1ccc2c(c1)OCO2)c1c(Cl)cccc1Cl	-2.9	-8	0.4	-0.8%	7	2
c1ccc2c(c1)Cc1ccccc1O2	?	45	-0.5	0.4%	-12	-7
CC(C)(C)OC(=O)NCCc1nnc(SCc2ccccc2Cl)o1	1.1	8	2.2	0.5%	6	-11
COc1ccc(C(=O)c2sc(Nc3ccccc3)nc2N)cc1	-0.2	-14&-11	0.0&1.5	2.7%&4.6%	-22	-3
Cc1ccccc1Cn1c(C)c(C(=O)N(C)Cc2ccc(F)cc2)sc1=O	-5.3	.	-0.1	0.5%	0	-5
CCC1CCCCN1C(=O)c1c[nH]c2ccc(S(=O)(=O)N(C)c3ccc(Cl)cc3)cc2c1=O (stereo unspecified)	1.5	19	0.1	.	-4	11
N#Cc1ccc(-c2cccnc2)nc1SCC(=O)Nc1sc2c(c1C#N)CCC2	0.2	1	0.8	?	-4	-7
O=C(Nc1ccccc1N1CCCC1)c1ccco1	-1.5	14	3.5	0.1%	-1	-15
Cc1c(C(=O)N2CCN(c3ncccn3)CC2)oc2ccc(F)cc12	3.2	18	0.4	-2.6%	6	-3
c1c2c(cc3sc(N4CCCCC4)nc13)OCO2	-2.8	?	3.5	-0.7%	-27	13
Cc1cc(N2CCCCC2)nc2ccc(NC(=O)/C=C/c3ccc(OCCC(C)C)cc3)cc12	.	-9	-0.3	2.2%	.	.
O=C(COc1ccccc1)Nc1ccc2nc(SCC(=O)N3CCOCC3)sc2c1	.	5	3.5	0.1%	.	.
O=C(c1ccco1)N1CCN(c2ccc(S(=O)(=O)N3CCCC3)cc2)CC1	-0.6	-10	-0.2	28%[38.3 µM]	-4	-6
CCn1cc(C(=O)NCc2ccccc2)c(=O)c2cc(F)c(N3CCN(C(=O)c4ccco4)CC3)cc21	2.3	30	0.9	-3.4%	-17	-20

Among those listed so far, 4 contain an NH in an aromatic ring:
SMILES	D2 agonist	TRPML1 inh	TRPML1 ag	PINK1 modulator	Six1-Eya2 blk	D2 PAM
COc1ccc(CSc2n[nH]c(C)n2)cc1Br	2.6	-2	1.7	-3.1%[38.3 µM]	-14	1
c1ccc2c(c1)[nH]c1c(N3CCN(C4CCCCC4)CC3)ncnc12	1.3	41	0.3	4.8%	-21	-13
C=CCc1cccc2cc(-c3nc4ccc(C(=O)O)cc4[nH]3)c(=O)oc12	.	7	0.2	2.0%	.	.
CCC1CCCCN1C(=O)c1c[nH]c2ccc(S(=O)(=O)N(C)c3ccc(Cl)cc3)cc2c1=O (stereo unspecified)	1.5	19	0.1	.	-4	11

(more compounds)
SMILES	D2 agonist	TRPML1 inh	TRPML1 ag	PINK1 modulator	Six1-Eya2 blk	D2 PAM
Cc1ccc(Cn2ccc(NC(=O)c3cc(C(C)C)on3)n2)cc1	-4.9	4	-0.2	1.1%	8	-9
O=C1Nc2ccc(S(=O)(=O)NCCC3=CCCCC3)c3cccc1c23	1.3	-17	-1.5	1.0%	3	?
COc1ccccc1C(=O)NCCn1cc(SCc2ccccc2Cl)c2ccccc21	.	13	0.3	1.7%	.	.
C[C@H](NC(=O)[C@@H]1Cc2ccccc2CN1)C(=O)Nc1ccc2c(c1)OCO2	-1.0	14	0.4	-1.1%	2	-4
COCCCNc1oc(-c2ccccc2F)nc1C#N	2.2	-4	0.1	1.2%	-6	0
COc1cccc(-c2csc(N3CCN(C(=O)Nc4ccccc4OC)CC3)n2)c1	-3.1	-6	1.9	4.8%[38.3 µM]	-6	-6
CCOc1ccc(NC(=O)COC(=O)CCC(=O)c2cccs2)cc1	0.4	11	2.9	0.2%	1	-3
COc1cccc(-c2cc(C(=O)Nn3cnnc3)c3ccccc3n2)c1	-2.8	8	1.0	1.9%[38.3 µM]	-4	-25
CCCCn1nnnc1C(c1ccccc1)N1CCN(c2cccc(C)c2C)CC1 (stereo unspecified)	.	.	19	2.4%	1	.
Oc1ccccc1N1CCN(c2ncnc3sc(-c4ccccc4)cc23)CC1	2.9	.	.	0.3%	-9	?
COc1ccc(C(C#N)=C2C=CC(=NO)C=C2)cc1	1.2	17	0.2	0.0%	-1	-17

Rows are unselected; about 1% have a hit in one of these screens.
